Insulin prom inh – inhibitors of insulin promoter-driven GFP, primary screen, imaging, TRM-6 cells (human fetal islet line), eGFP reporter, cell count; reporter expression induced with tamoxifen; inhibition, % at 2 µM; 130,000 compounds, 0.9% hits; AID 1273, 2008;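 active means inhibition above the mean plus 3 SD, with well images judged a real hit on visual review, cut at about 60% in these data, passing the limit was not always enough; inconclusive means inhibition over the cutoff but images rejected on review; inactive means inhibition not above the cutoff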
PKD1 kinase inh – inhibitors of human PKD1 kinase, biochemical, fluorescence polarization | Serine/threonine-protein kinase D1 (Homo sapiens), Q15139 | PKD1 kinase fluorescence polarization assay | inhibition, %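 (about 10 µM by stock and volumes)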 | 200,000 compounds, 0.056% hits | AID 797, 2007;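 active means inhibition of 50% or more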;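 further: controls were vehicle for no effect and a reference inhibitor for full effect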
GALR2 agonist – GALR2 receptor agonists, primary screen, cell-based. Galanin receptor type 2 (Homo sapiens), O43603. GALR2-expressing cells, agonist activation read-out. activation, %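 (tested at 5 µM)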. 140,000 compounds, 0.48% hits;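 active means above mean plus 3 SD of all compounds, about 5% in these data, not always enough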;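 further: 0% = vehicle buffer wells and 100% = reference agonist at full effect; tested in CHO reporter cells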
Target sequence (O43603 whole entry, looked up): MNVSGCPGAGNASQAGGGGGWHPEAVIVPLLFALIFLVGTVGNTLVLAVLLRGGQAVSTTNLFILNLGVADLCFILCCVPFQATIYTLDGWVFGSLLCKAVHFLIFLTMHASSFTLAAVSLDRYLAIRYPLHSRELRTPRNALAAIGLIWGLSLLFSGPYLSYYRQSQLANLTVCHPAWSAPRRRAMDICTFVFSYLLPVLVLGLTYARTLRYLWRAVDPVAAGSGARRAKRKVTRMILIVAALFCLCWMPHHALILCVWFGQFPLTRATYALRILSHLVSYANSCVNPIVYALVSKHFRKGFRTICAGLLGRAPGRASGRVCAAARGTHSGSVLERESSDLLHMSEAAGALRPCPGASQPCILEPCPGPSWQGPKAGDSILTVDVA
RGS16-Gao HTS – modulators of RGS16 binding to Galphao, primary screen, biochemical, human proteins, multiplexed bead flow cytometry | Regulator of G-protein signaling 16 (Homo sapiens) + Guanine nucleotide-binding protein … | bead-based flow cytometry RGS16-Galphao binding, fluorescence; actives lie on both sides | binding response (% of control), % at 10 µM | 220,000 compounds, 0.38% hits | AID 1441, 2008;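 active means below 25% or above 175%, edge rows of some plates excepted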;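 further: Galphao activated by GDP with aluminum fluoride before binding; 100% = wells without compound and 0% = beads without RGS; some results beyond the cut were filed as inactive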
Target sequence (O15492 whole entry, looked up): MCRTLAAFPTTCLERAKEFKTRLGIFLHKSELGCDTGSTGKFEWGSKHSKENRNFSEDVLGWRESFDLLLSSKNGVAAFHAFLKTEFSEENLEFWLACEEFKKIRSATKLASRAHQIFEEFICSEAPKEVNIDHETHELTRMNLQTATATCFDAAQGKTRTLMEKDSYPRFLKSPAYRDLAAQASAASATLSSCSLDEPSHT
Target sequence (P09471 whole entry, looked up): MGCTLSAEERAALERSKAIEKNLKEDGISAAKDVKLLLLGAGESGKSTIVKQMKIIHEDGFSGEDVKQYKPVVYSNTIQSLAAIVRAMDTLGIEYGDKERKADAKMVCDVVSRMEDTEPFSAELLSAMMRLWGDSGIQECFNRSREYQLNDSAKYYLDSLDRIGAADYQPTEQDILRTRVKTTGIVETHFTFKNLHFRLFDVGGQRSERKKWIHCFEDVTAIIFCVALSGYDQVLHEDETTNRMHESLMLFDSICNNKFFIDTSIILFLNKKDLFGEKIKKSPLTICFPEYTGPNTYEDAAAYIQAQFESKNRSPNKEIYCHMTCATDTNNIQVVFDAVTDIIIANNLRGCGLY
HSV replic up – enhancers of HSV replication in host cells, fold increase, host cell viability. HSV replication augmentation in cells. maximum fold increase. 220,000 compounds, 0.005% hits;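 active means peak rise of 1.5-fold or more in the series; inconclusive means self-fluorescent or not available for retest; tested in PC3 cells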;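 further: first round at 10 µM; read as green reporter fluorescence; hits show the peak of a series up to 25 µM; 1 = signal of infected wells without compound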
Insulin prom inh cell count – further read-out of Insulin prom inh, marked with its call; normalized cell count, %; measured here: cell count, toxicity; reference of the scale not given here;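 cells exposed to compound for 48 h; stained nuclei by imaging scaled within each plate; lower means fewer cells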
HSV replic up primary fold – second read-out of HSV replic up, no call of its own (marks repeat the call); fold increase; compound at 10 µM; measured here: primary screen fold increase 10 uM; tested in PC3 cells;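 GFP signal in the first replicate; 1 = infected wells without compound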
An asterisk follows results filed as active; i = inactive; ? = inconclusive; nt = no result given.

molecule	Insulin prom inh	Insulin prom inh cell count	PKD1 kinase inh	GALR2 agonist	RGS16-Gao HTS	HSV replic up	HSV replic up primary fold
COc1ccc2sc(C)nc2c1NC(C)=O	nt	nt	-4.5	-0.3	99.1	i	0.94
CCOC(=O)c1ccc(NC(=S)NCCc2ccccc2F)cc1	nt	nt	4.8	nt	100.6	i	0.99
COc1ccc(N2CSC3=C(C#N)C(c4ccc(OC)c(OC)c4)CC(=O)N3C2)c(OC)c1 (centres undefined)	nt	nt	-3.3	-2.3	44.4	i	0.98
C=CCNC(=O)C1CC(c2cccc(OC)c2)=NO1 (centres undefined)	nt	nt	-10.7	-1.3	106.1	i	0.84
COc1cc(NC(=O)CSc2c3c(nc4ccccc24)CCC3)cc(OC)c1OC	nt	nt	6.1	-1.2	102.2	i	0.94
COC(C[C@H](O)C[C@H](O)COCc1ccccc1)OC	nt	nt	nt	nt	100.2	i	0.62
O=C(c1cccnc1)N1CCC(c2nc3ccccc3[nH]2)CC1	nt	nt	1.5	-2.0	101.1	i	1.21
Cn1c(=O)n(C)c2cc(S(=O)(=O)Nc3ccccc3O)ccc21	-10.7	89.6	-4.0	-2.2	109.3	i	1.26
CSc1nc2c(c(=O)[nH]1)C(c1cccc(Br)c1)CC(=O)N2 (centres undefined)	9.1	101.5	2.0	nt	101.9	i	0.99
COc1ccccc1NC(=O)C(C)NS(=O)(=O)c1ccccc1 (centres undefined)	i	38.6	2.7	-1.4	103.6	i	0.94
CCc1cccc(NC(=O)Nc2cccs2)c1	45.5	139.9	-2.4	-0.4	104.2	i	0.983
CCOc1cc(/C=N/NC(=O)Cn2nc([N+](=O)[O-])cc2C)ccc1OCc1ccc(F)cc1	21.1	104.3	-12.8	-0.3	113.5	?	nt
Cc1ccc(-c2n[nH]c(=O)c3ccccc23)cc1S(=O)(=O)N(C)CCO	35.7	107.0	5.0	-0.7	103.4	i	0.7
COc1ccc2c(c1)N(C(=O)CSc1n[nH]c(C)n1)C(C)(C)C=C2C	-40.5	232.9	-4.8	0.1	100.1	i	1
CCC(C)(NC(=O)c1cccc(N2C(=O)CSC2c2ccccc2)c1)C(=O)Nc1ccccc1C (centres undefined)	nt	nt	-3.4	-0.8	100.4	i	0.99
COc1ccc(N2CCN(C(=S)NC(C)c3ccccc3)CC2)cc1 (centres undefined)	-50.0	124.3	-4.7	nt	100.6	i	0.92
CC(C)(C)NC(=O)COC(=O)/C=C/c1ccc(F)cc1	nt	nt	-0.1	-0.8	97.9	i	0.89
COc1cc(OC)cc(C(=O)N2CCC(N3CCN(c4ccccc4OC)CC3)CC2)c1	-8.3	74.1	-2.7	-0.6	113.7	nt	nt
COc1cccc(NC(=O)CSc2nc3n[nH]c(C)c3c(=N)n2-c2cccc(OC)c2)c1	30.3	70.9	12.9	-0.7	105.4	i	0.79
CCn1c(-c2ccncc2)n[nH]c1=S	-8.3	132.4	-2.7	nt	97.9	i	1.04
CCn1c(SCC(=O)Nc2cc(F)ccc2C)nnc1-c1ccccc1O	nt	nt	-3.9	0.1	98.1	i	0.94
CC(C)(C)c1cc(Br)c(O)c(N=Nc2ccc(S(=O)(=O)N3CCOCC3)cc2)c1	nt	nt	-2.3	nt	104.3	i	0.73
CC(=O)/C=C/c1ccccc1O	37.5	106.9	-2.8	nt	101.8	i	0.79
COc1ccc(CNc2ccc(-c3ccc(OC)cc3)nn2)cc1	-114.3	110.0	-10.3	-1.4	100.6	i	1.06
COc1cc(CN2CCN(CCc3ccccc3)C(CCO)C2)cc(OC)c1 (centres undefined)	nt	nt	-2.3	nt	97.0	i	1.02
CCCC(C)NC(=O)Cc1ccccc1 (centres undefined)	nt	nt	nt	nt	96.7	i	0.89
COc1cccc(CNC(=O)CCNS(=O)(=O)c2cccs2)c1	-7.4	107.3	-3.5	-1.7	101.2	i	0.95
CCCN1CCC(=O)N(CCSc2ccc(C)cc2)CC1	nt	nt	nt	nt	101.0	i	0.88
CCOC(=O)C1=C(C)N=C2SC(C)C(=O)N2C1c1ccc(OC(C)=O)c(OC)c1 (centres undefined)	-47.6	85.0	-18.7	-2.0	95.7	i	0.96
O=C(Cc1ccc(Cl)cc1)NNC1CC(=O)N(c2ccc3ccccc3c2)C1=O (centres undefined)	nt	nt	nt	nt	105.0	i	0.83
CCCN1C(=O)S/C(=C\c2ccc(N3CCOCC3)cc2C)C1=O	38.5	52.7	-6.9	-0.9	111.8	?	nt
COc1ccccc1Oc1nc(C)c(C(C)=O)cc1C#N	-53.9	100.4	-5.0	nt	72.0	nt	nt
CCOc1ccc(CC(=O)NNC(=S)NC)cc1Br	nt	nt	nt	nt	109.3	i	1.03
CCCCOc1ccc(-c2c(C#N)c(N)[nH]c(=S)c2C#N)cc1	nt	nt	nt	nt	99.7	i	0.87
Cc1nn(-c2ccccc2)c(N)c1N=O	nt	nt	nt	nt	107.6	i	0.87
CN(C)c1ccc(/C=N/n2c(COc3ccccc3)n[nH]c2=S)cc1	-2.9	94.0	0.7	-2.1	99.3	i	0.89
CC(C)(C)OC(=O)N/N=C\c1ccc[nH]1	21.4	34.2	-2.9	nt	103.0	i	1.01
CN(C)S(=O)(=O)Oc1cccc(C(=O)Nc2ccc(Cl)c(Cl)c2)c1	15.4	120.7	3.6	-1.6	101.9	i	0.75
COc1ccc(Cn2c(=O)c3[nH]cnc3n(-c3ccccc3C)c2=O)cc1	nt	nt	nt	nt	101.7	i	0.69
Cc1ccc(C)c(Oc2ncnc(N)c2[N+](=O)[O-])c1	nt	nt	-2.3	-2.4	58.7	nt	nt

3 compounds from above, arranged by their value in HSV replic up primary fold, largest number first.
Molecule	HSV replic up primary fold
CSc1nc2c(c(=O)[nH]1)C(c1cccc(Br)c1)CC(=O)N2 (centres undefined)	0.99
CCCC(C)NC(=O)Cc1ccccc1 (centres undefined)	0.89
C=CCNC(=O)C1CC(c2cccc(OC)c2)=NO1 (centres undefined)	0.84

(more compounds)
molecule	Insulin prom inh	Insulin prom inh cell count	PKD1 kinase inh	GALR2 agonist	RGS16-Gao HTS	HSV replic up	HSV replic up primary fold
CCC(CC)c1nnc(NC(=O)c2cccc(S(=O)(=O)N3CCc4ccccc43)c2)s1	16.2	77.8	-7.8	-2.8	99.6	nt	nt
CC(C)COC(=O)n1c(=O)oc2ccc(S(=O)(=O)N3CCCCC3)cc21	nt	nt	nt	nt	97.9	i	0.88
CC(NC(=O)Cn1ccsc1=N)C12CC3CC(CC(C3)C1)C2 (centres undefined)	nt	nt	-2.6	-2.7	101.8	i	0.88
O=C(C(=O)N1CCN(c2ccc(F)cc2)CC1)c1c[nH]c2ccccc12	nt	nt	-6.9	nt	101.0	i	0.83
O=C(c1cccs1)N(Cc1nc2sc3c(c2c(=O)[nH]1)CCCC3)C1CCCC1	20.0	111.6	-10.3	-0.6	106.4	i	0.93
CN(C(=O)C(Cl)Cl)c1ccc(OC(=O)c2ccco2)cc1	38.1	95.8	-7.0	-1.2	95.2	i	0.94
CCN1C(=O)/C(=C/c2nc3ccccc3c(=O)n2-c2ccccc2)c2ccccc21	-17.4	86.8	-4.7	-1.7	106.8	i	0.69
O=[N+]([O-])c1cc(S(=O)(=O)N2CCOCC2)ccc1N1CCCC1	-42.9	57.6	-4.5	nt	148.5	i	1.07
Fc1ccc(CSc2ncnc3ccccc23)cc1	nt	nt	-0.4	nt	104.2	i	0.96
O=c1/c(=C/c2cccc3ccccc23)sc2ncnn12	35.7	99.4	-1.4	-0.1	107.5	i	0.86

Complete entries from above:
Entry for `O=c1/c(=C/c2cccc3ccccc23)sc2ncnn12` : Insulin prom inh: 35.7; Insulin prom inh cell count: 99.4; PKD1 kinase inh: -1.4; GALR2 agonist: -0.1; RGS16-Gao HTS: 107.5; HSV replic up: i; HSV replic up primary fold: 0.86
Entry for `CCN1C(=O)/C(=C/c2nc3ccccc3c(=O)n2-c2ccccc2)c2ccccc21` : Insulin prom inh: -17.4; Insulin prom inh cell count: 86.8; PKD1 kinase inh: -4.7; GALR2 agonist: -1.7; RGS16-Gao HTS: 106.8; HSV replic up: i; HSV replic up primary fold: 0.69

Sorted by heavy-atom count (rising): 3 of the compounds above.
molecule	Insulin prom inh	Insulin prom inh cell count	PKD1 kinase inh	GALR2 agonist	RGS16-Gao HTS	HSV replic up	HSV replic up primary fold
CN(C(=O)C(Cl)Cl)c1ccc(OC(=O)c2ccco2)cc1	38.1	95.8	-7.0	-1.2	95.2	i	0.94
CC(NC(=O)Cn1ccsc1=N)C12CC3CC(CC(C3)C1)C2 (centres undefined)	nt	nt	-2.6	-2.7	101.8	i	0.88
O=C(C(=O)N1CCN(c2ccc(F)cc2)CC1)c1c[nH]c2ccccc12	nt	nt	-6.9	nt	101.0	i	0.83

New compounds follow
molecule	Insulin prom inh	Insulin prom inh cell count	PKD1 kinase inh	GALR2 agonist	RGS16-Gao HTS	HSV replic up	HSV replic up primary fold
O=c1cc(CCl)[nH]c2nc3ccccc3n12	nt	nt	nt	nt	104.8	i	0.9
Cc1ccc(C(=O)c2c[nH]c(C(=O)NCc3cccnc3)c2)cc1	25.0	132.5	12.8	0.6	111.5	i	0.74
Cc1cc(C(F)(F)F)n2[nH]c(=O)c(N=Nc3ccccc3)c2n1	35.7	66.8	-4.9	nt	104.8	i	0.92
C/C(=N\NC(=O)c1cccc(N2CCCC2=O)c1)c1ccc(N)cc1	28.6	104.3	-2.6	nt	103.3	i	1.02
COc1cc(C(=O)NCc2ccc(C)cc2)ccc1OCc1c(C)noc1C	nt	nt	-4.5	-0.7	95.7	i	0.9
COc1ccc(OCC(O)CNC(=O)Nc2cccc3ccccc23)cc1 (centres undefined)	nt	nt	nt	nt	99.8	i	1
CCC(C)(C(=O)NC1CCCC1)N(C(=O)c1cnccn1)c1c(C)n(C)n(-c2ccccc2)c1=O (centres undefined)	-10.7	32.8	-5.0	-0.2	94.6	i	1.07
CCn1c(SCC(=O)Nc2cccc(NC(C)=O)c2)nnc1C(C)C	46.0	77.3	8.2	-1.5	102.1	i	0.997
Cc1ccc(-c2csc(NC(=O)c3cccc([N+](=O)[O-])c3)n2)cc1	29.2	103.4	-22.4	-0.8	95.5	nt	nt
CC(=O)NC(C)c1nc2ccccc2n1CC(=O)N1C(C)CCCC1C (centres undefined)	nt	nt	3.8	nt	92.6	i	0.97
O=C(c1ccc2c3c(cccc13)C(=O)N(O)C2=O)N1CCCCC1	29.4	49.2	-5.3	-2.0	103.4	i	1.02
CC1=Cc2ccccc2C(C#N)N1C(=O)c1ccccc1 (centres undefined)	nt	nt	-5.9	-1.0	44.9	i	0.8
O=c1c2ccccc2nc(SCc2cccc(F)c2)n1-c1cccc(S(=O)(=O)N2CCCC2)c1	15.4	119.4	-2.6	0.1	46.6	nt	nt
O=C(c1ccco1)N1CCN(C(c2ccccc2F)c2nnnn2Cc2cccs2)CC1 (centres undefined)	9.7	120.8	-4.8	-0.9	99.2	i	1.01
Cc1cc(C(=O)CSc2nc3ccccc3c(=O)[nH]2)c(C)n1C	-71.4	107.0	-0.4	-1.2	11.1*	i	0.94
Cc1ccc(NC(=S)N2CCC(c3nc4ccccc4s3)CC2)cc1	nt	nt	-3.9	-0.5	108.2	i	1.09
CCNC(=O)CCCOc1ccc(Cl)cc1Cl	45.5	99.2	-12.1	-0.5	102.8	i	0.71
Cc1cccc(C(=O)Nc2ccc(C(=O)/C=C/c3cccnc3)cc2)c1	-25.9	65.9	0.6	-0.3	242.2	i	0.6
Cc1ccc(Nc2nnc(C3C(=O)N(C)C4(C)CC3c3cc(Br)ccc3O4)s2)cc1 (centres undefined)	-21.2	51.2	-7.0	-0.4	107.9	i	0.98
CN(C)/C=C(\C(=O)c1ccccc1)c1nnnn1-c1ccccc1	nt	nt	nt	nt	96.0	i	1
Cc1cc2oc(=O)c3c(c2cc1OC(=O)c1ccco1)CCCC3	18.8	126.5	-1.1	-2.1	140.1	i	0.997
O=C(CSc1ccccn1)Nc1ccc2c(c1)C(=O)c1ccccc1C2=O	0.0	175.7	1.9	-1.4	28.5	i	0.97

Assay outcomes as filed in PubChem BioAssay.
